Source: PubChem BioAssay
Vif TR-FRET: HIV-1 Vif–A3G interaction blockers – biochemical, TR-FRET, GST-Vif 1-94, biotin-A3G peptide, dose response retest, primary screen (AID 1117319); TR-FRET GST-Vif / biotin-A3G peptide binding; higher % means a stronger effect; test concentration not given here; strong numbers were not always called active; one-dose inhibition, %; IC50 in µM for titrated hits; 260,000 compounds, 0.57% hits;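 active = above the screen mean plus three standard deviations and confirmed in dose response; inconclusive = results disagree or hit not tested in dose response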;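 also: Vif residues 1-94 fused to GST binding biotinylated APOBEC3G peptide 110-148; 0% = full assay without inhibitor and 100% = GST in place of GST-Vif; retest series ran down from 100 µM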
RanGTP-Imp inh: disruptors of Ran-importin-beta complex formation – biochemical, FRET, CFP-Ran, YFP-importin-beta, homogeneous, primary screen | cell-free CFP-Ran/YFP-importin-beta FRET ratio | inhibition, % (no concentration beside the values) | 300,000 compounds, 1.1% hits;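 active = most replicates above 15%; inconclusive = exactly half above 15%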;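 also: 0% = DMSO wells and 100% = Ran loaded with GDP instead of GTP; wells of about 40 µL received 100 nL stock; the first replicate is given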
MLL AF4-AF9 inh: blocks AF4 peptide binding to human AF9. P42568. AlphaScreen, biotin-AF4 peptide binding to FLAG-AF9. inhibition, % at 10 µM. 350,000 compounds, 0.47% hits;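 active = every replicate reaching a set inhibition limit, whatever the replicate mean, cut at about 25% in these data; inconclusive = mean inhibition reaches that limit but some replicates miss it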;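 also: 0% = plate neutral control median and 100% = total signal loss; the record names both 10 and 1 µM as test concentration; the first replicate is given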
Target sequence (P42568 whole entry, looked up): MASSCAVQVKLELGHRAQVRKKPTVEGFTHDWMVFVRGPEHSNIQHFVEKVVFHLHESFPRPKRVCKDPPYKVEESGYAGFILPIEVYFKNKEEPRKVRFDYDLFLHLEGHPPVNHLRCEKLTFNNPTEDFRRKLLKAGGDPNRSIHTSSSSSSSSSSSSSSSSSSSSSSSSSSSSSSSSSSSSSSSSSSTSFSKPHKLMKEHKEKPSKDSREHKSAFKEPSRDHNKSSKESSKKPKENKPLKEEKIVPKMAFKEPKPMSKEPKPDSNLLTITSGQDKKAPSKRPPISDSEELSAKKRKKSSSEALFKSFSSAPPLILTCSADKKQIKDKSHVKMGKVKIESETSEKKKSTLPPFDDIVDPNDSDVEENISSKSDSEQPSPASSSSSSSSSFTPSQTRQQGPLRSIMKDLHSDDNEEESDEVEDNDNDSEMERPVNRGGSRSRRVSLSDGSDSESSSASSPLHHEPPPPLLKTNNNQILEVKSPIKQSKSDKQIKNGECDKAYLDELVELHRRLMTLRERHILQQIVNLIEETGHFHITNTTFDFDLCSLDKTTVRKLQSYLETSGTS
Bfl-1 A1 inh: inhibitors of the anti-apoptotic protein A1, read as caspase activation. MEF A1-2A-BIM cells, Caspase-Glo 3/7 luminescence, 3 h; percent of clofoctol response, vehicle zero. caspase activation, % (concentration not given with the values). 330,000 compounds, 0.066% hits;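 active = over half of replicate activation scores above 10%, or exactly half above 10 with the replicate mean above 10; inconclusive = replicate mean below 10 yet half the replicates above 10; inactive = over half of replicates below 10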;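 also: wells of about 30 µL received 50 nL stock; many hits fall short of the cut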
Calb FLC: C. albicans growth modulation with fluconazole | 300,000 compounds, 0.57% hits | growth inhibition, % (concentration not given with the values) | AID 1979 | C. albicans CaCi-2 (fluconazole-resistant clinical isolate) + fluconazole, Alamar Blue growth, 48 h;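 active = most replicates above 75%; inconclusive = exactly half above 75%; inactive = most below 75%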;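 also: all wells also contain fluconazole at 8 µg/ml as a sub-toxic cotreatment; 0% = median of DMSO wells and 100% = median of geldanamycin control wells; wells of about 8 µL received 7.5 nL stock; the first replicate is given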
Beta cell apopt: blocks beta cell apoptosis | INS-1E cytokine-induced death, ATP luminescence, 48 h; percent of positive-control rescue, neutral wells zero | protection from apoptosis, % (no concentration beside the values) | 300,000 compounds, 0.8% hits | AID 435005;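 active = all replicates at 75% or more, or half of them and the mean; inconclusive = half reach 75% but not the mean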;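 also: 0% = cytokine-treated negative control wells and 100% = positive control rescue; higher means more ATP so stronger rescue from cytokine killing; wells of about 40 µL received 100 nL stock; the first replicate is given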
Ecoli rRNA inh: inhibitors of bacterial rRNA selective over humanized ribosomes | E. coli WT GFP vs humanized-ribosome RFP mutants, fluorescence, 24 h; hits give low values; DMSO median 0, no signal -100 | GFP signal change (wild-type ribosome), % (no concentration beside the values) | 350,000 compounds, 1.6% hits;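 active = significant combined selectivity score with lowered wild-type GFP, culture density cut under 30%, mutant RFP and density less affected; inactive = any of these conditions unmet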; also: one replicate is shown; some compounds called inactive have numbers as strong as hits
T cruzi repl: blocks replication of Trypanosoma cruzi | T. cruzi beta-gal in NIH3T3, luminescence, 90 h | inhibition, % (test concentration not listed) | 300,000 compounds, 1.4% hits | AID 1885;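 active = mean inhibition across valid replicates above about 55%, limit read from the data; inconclusive = mean below that limit but half or more replicates reach it; inactive = mean below it, under half of replicates reach it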;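 also: signal also drops with host cell toxicity which is not excluded here; 0% = plate median of DMSO wells and 100% = zero luminescence signal; higher percent means less beta-gal luminescence so fewer parasites; stock transfer was 50 nL into about 50 µL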
Ecoli rRNA inh OD600: second read-out of Ecoli rRNA inh, no call of its own (marks repeat the call); OD600 change, %; measured here: OD600 growth;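 optical density of the mix in the first replicate; 0 = DMSO median and -100 = no signal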
Ecoli rRNA inh RFP: recorded beside Ecoli rRNA inh, whose call it bears; RFP signal change, %; measured here: RFP humanized mutant strains;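 first replicate; 0 = DMSO median and -100 = no signal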
Starred values were filed as active, the others as inactive; ? = inconclusive; / = no result given.

SMILES	Vif TR-FRET	RanGTP-Imp inh	MLL AF4-AF9 inh	Bfl-1 A1 inh	Calb FLC	Beta cell apopt	Ecoli rRNA inh	Ecoli rRNA inh OD600	Ecoli rRNA inh RFP	T cruzi repl
CCNC(=S)Nc1cc(C)ccn1	/	1.6	/	-0.1	4	-1	/	/	/	-32
CN(Cc1ccccc1)S(=O)(=O)c1ccc(Cl)c(C(=O)N2CCC2)c1	23%	/	-15	0.0	/	-7	5	-6	2.4	/
O=[N+]([O-])c1ccc(Nc2ccccn2)c([N+](=O)[O-])c1	/	-1.0	2.6	0.8	3	0	12	0	0.3	-1
CC(C)(C)/C(O)=C/c1nc2ccccc2[nH]c1=O	/	-1.3	/	1.2	0	-2	/	/	/	-42
CC(C)=CCC/C(C)=C/CNC(=O)CC1C[C@H](C(=O)N2CCOCC2)[C@@]2(C)c3[nH]c4ccccc4c3CCN2C1=O (stereo partly specified)	-7%	/	9.7	0.7	/	3	-8	-29	9.4	/
N#Cc1cnc(N)c(Br)c1	0%	4.7	7.6	0.0	3	-4	19	12	1.1	-9
COc1ccc(OCC(=O)NC2CC(C)(C)NC(C)(C)C2)cc1	2%	4.1	/	1.2	3	-5	/	/	/	-12
COc1ccc(CCn2c(=O)[nH]c3cc(C(=O)NCCN4CCOCC4)ccc3c2=O)cc1OC	-4%	2.1	/	-0.3	0	-4	/	/	/	-15
CC(NC(=O)COC(=O)CSCc1ccccc1)c1ccccc1 (stereo unspecified)	-6%	-1.4	-1.1	2.0	-6	-14	6	-1	2.3	8
O=C(Cc1ccccc1)NCCSCc1ccco1	?	-5.3	-6.9	0.0	-3	-6	10	11	1.6	-13
CC1CCN(CCOc2cccc(Br)c2)CC1	2%	-0.7	/	0.0	-25	2	/	/	/	5
CC(=O)N1c2ccc(S(=O)(=O)N3CCC(C(=O)Nc4ccc(F)cc4)CC3)cc2CC1C (stereo unspecified)	-2%	-1.0	1.1	-0.4	1	4	-5	-3	-1.5	8
Cc1nn(CC(=O)O)c(C)c1N	19%	4.1	-112	0.4	3	-7	10	14	-3.3	-2
COCCCn1c(SCC(=O)N2CCOCC2)nc2cc(Cl)ccc2c1=O	/	/	-1.4	1.1	/	-2	-13	-5	-1.5	/
CCOC(=O)c1c(NC(=O)C2COc3ccccc3O2)sc2c1CC(C)(C)NC2(C)C (stereo unspecified)	/	0.3	/	0.1	1	9	/	/	/	27
CSc1nsc(SCC(=O)Nc2ccccc2F)n1	/	7.7	-0.4	0.0	1	/	-5	3	0.4	9
CCOC(=O)c1ccc(S(=O)(=O)Nc2ccc3cn[nH]c3c2)cc1	4%	0.2	/	0.2	-1	13	/	/	/	-16
CCS(=O)(=O)N1CCC(C(=O)c2ccc(Cl)cc2)CC1	-4%	2.4	/	-0.3	-9	-2	/	/	/	0
Cc1conc1NC(c1cccs1)c1ccc2cccnc2c1O (stereo unspecified)	11%	-3.0	/	0.3	87*	106*	/	/	/	29
O=C(N/N=C/c1ccccc1O)C1CC(=O)N(c2ccc(F)cc2)C1 (stereo unspecified)	/	-2.0	1.1	3.7	-11	26	-8	-5	0.5	16
Fc1ccccc1N1CCN(c2ncnc3[nH]ncc23)CC1	14%	3.2	/	1.5	5	-3	/	/	/	3
COc1ccc(NC(=O)c2cc(C)on2)cc1	2%	-4.1	1.1	-1.5	-4	4	5	1	-3.2	-8
COCCNC(=O)c1ccccc1-c1nc(-c2ccccc2OC)no1	1%	2.2	/	0.2	-22	-5	/	/	/	-5
CN(NC(=O)c1ccc(Cl)cc1)c1ncc(C(F)(F)F)cc1Cl	/	4.0	-1.9	0.6	-17	-15	/	/	/	/
COc1ccc2oc(C(=O)Nc3nc(-c4ccccn4)cs3)c(C)c2c1	-59%	7.0	1.5	0.2	15	12	-1	6	11	70*
CCN1CCN(C(=O)CCc2nnc3ccc(N4CCN(c5cccc(OC)c5)CC4)nn23)CC1	/	-4.4	0.7	1.0	17	-3	12	14	0.4	6
Cc1cc(=O)[nH]c(SCC(=O)c2ccc(O)c(O)c2)n1	/	2.7	-4.1	-0.2	-9	/	5	14	1.6	-15
Cc1c(NC2(C#N)CCCC2)c(=O)n(-c2ccccc2)n1C	0%	-0.7	/	0.9	-9	-1	/	/	/	-8
CCC(C(=O)NN1C(=O)c2ccccc2C1=O)c1ccccc1 (stereo unspecified)	-2%	1.8	0.3	-0.8	-1	-9	17	2	2.5	-6
O=[N+]([O-])c1cc([N+](=O)[O-])c(Oc2cc(F)ccc2F)cc1NN1CCCCC1	/	3.5	-2.3	2.4	-3	10	2	13	-0.3	-4
CCCc1cc(=O)[nH]c(SCC(=O)C(C)(C)C)n1	1%	1.8	/	-1.1	28	7	/	/	/	-11
O=C(CN1CCN(S(=O)(=O)c2ccc(F)cc2)CC1)Nc1ccc(Cl)cn1	/	2.5	-8.5	0.0	11	-5	-8	-4	1.3	-9
Cc1c(C)n(Cc2ccccc2)c2ccc(C(=O)NCCCN3CCOCC3)cc12	/	1.1	12	-1.2	-1	6	-46	-73	-14	0
Cc1[nH]n(-c2ccccc2)c(=O)c1C=NCC1CCCO1 (stereo unspecified)	-2%	-2.4	-0.3	-0.4	-2	-5	-1	1	-0.9	-22
CCn1cc(C(=O)OCC(=O)Nc2c(C)n(C)n(-c3ccccc3)c2=O)c(=O)c2ccc(C)nc21	5%	2.7	/	0.8	3	-1	/	/	/	-5
Cc1cc(Cl)c2oc(C(=O)N3CCN(C(=O)c4ccco4)CC3)c(C)c2c1	/	-1.2	-12	0.7	17	2	-2	-10	-2.0	10
CC(OC(=O)/C=C/c1ccc2ccccc2n1)C(=O)Nc1ccc(S(N)(=O)=O)cc1 (stereo unspecified)	-4%	-1.8	-0.1	1.4	0	-12	7	2	2.2	-11
CCOC(=O)c1sc(NC(=S)NC(=O)c2cccc(OC)c2)nc1C	-26%	7.4	2.3	-0.3	1	1	2	9	-2.5	-3
CCC(C)c1ccc(NC(=O)NCc2cccnc2)cc1 (stereo unspecified)	/	4.6	1.5	0.4	-1	11	6	-4	-6.6	8
Cc1cccc(NC(=O)c2ccc3nccnc3c2)c1C	/	1.0	-1.2	-0.6	-2	-14	2	4	-2.6	-11
COC(=O)c1cnc(SCc2ccc(Cl)cc2)n1C	-8%	3.9	1.1	0.3	20	4	-21	-16	-3.1	-7
O=S(=O)(NCc1ccco1)c1cccc2cccnc12	?	0.8	/	-0.2	-5	-1	/	/	/	-5
Cc1ccc(C(=O)Nc2nnc(-c3ccco3)o2)cc1C	/	0.5	/	-1.7	-15	-1	/	/	/	-49
O=C(CSc1nc2ccccc2c(=O)n1-c1ccccc1)NCC1CCCO1 (stereo unspecified)	/	0.2	-14	0.5	1	/	3	5	-3.1	-5
COc1ccc2cc(C(=O)C3CCCN(Cc4cnc(N5CCOCC5)s4)C3)ccc2c1 (stereo unspecified)	10%	5.5	20	-0.1	-11	-1	-17	-8	22	41
Cc1ccc(CCNC(=O)C2CC(c3cc(C(F)(F)F)cc(C(F)(F)F)c3)=NO2)cc1 (stereo unspecified)	-9%	2.3	/	-1.4	-7	-2	/	/	/	-20
CCOc1ccc(N2CC(C(=O)Nc3nnc(CC)s3)CC2=O)cc1 (stereo unspecified)	5%	1.5	-1.1	?	13	/	9	10	0.4	0
C[n+]1ccc(/C=C/c2ccc(Br)cc2)cc1	2%	-0.9	/	-1.7	-30	3	/	/	/	32
CCN(c1ccccc1)S(=O)(=O)c1cccc(C(=O)NCCN2CCOCC2)c1	-1%	/	-0.9	1.0	/	-3	1	7	-2.4	/
COc1cccc(Nc2ccc(-n3ccnc3)nn2)c1	-12%	4.1	4.1	0.5	-15	1	6	2	0.2	-10
Cc1ccc(-c2nc(CS(=O)(=O)CC(=O)N3CCCCCC3)c(C)o2)cc1	1%	-0.6	?	0.7	0	3	-6	-21	0.6	-16
C=C(C)CNC(=S)NNC(=O)CCn1c2ccc(Cl)cc2c2cc(Cl)ccc21	2%	3.6	3.0	0.5	2	5	6	-3	2.5	4
COC(=O)c1c(C)oc2ccc(NS(=O)(=O)c3cc(OC)ccc3OC)cc12	-1%	1.3	/	-0.5	-8	/	/	/	/	4
COc1ccc(N=C2C(=O)N3c4c(cccc42)C(C)=CC3(C)C)cc1	/	-0.2	/	0.8	-28	2	/	/	/	2
COc1cccc2cc(C(=O)NCCc3ccccc3)c(=O)oc12	-9%	3.6	-2.9	-0.6	-4	2	14	10	-1.4	1
CN(C)S(=O)(=O)c1cc(NC(=O)COC(=O)CC2Sc3ccccc3NC2=O)ccc1Cl (stereo unspecified)	-1%	/	-0.9	0.4	/	-5	-14	-37	-1.7	/
Cc1ccccc1NC(=O)CN1C(=O)NC2(CCCCC2)C1=O	-3%	-1.4	/	0.3	-3	-6	/	/	/	11
O=C(/C=C/c1ccc2c(c1)OCO2)c1ccco1	11%	-7.2	/	-1.6	-27	-2	/	/	/	1
CC(=O)Nc1ccc(C(=O)N2CCCC2)cc1	1%	?	/	0.6	-3	0	/	/	/	7
Cc1cccc2cc(CN(Cc3cccs3)S(=O)(=O)c3ccc4c(c3)OCCO4)c(=O)[nH]c12	0%	2.2	-5.4	0.1	12	1	-17	-12	-0.5	20

A portion from further up, as a working copy:
SMILES	Vif TR-FRET	RanGTP-Imp inh	MLL AF4-AF9 inh	Bfl-1 A1 inh	Calb FLC	Beta cell apopt	Ecoli rRNA inh	Ecoli rRNA inh OD600	Ecoli rRNA inh RFP	T cruzi repl
CC(=O)Nc1ccc(C(=O)N2CCCC2)cc1	1%	?	/	0.6	-3	0	/	/	/	7
Cc1cccc2cc(CN(Cc3cccs3)S(=O)(=O)c3ccc4c(c3)OCCO4)c(=O)[nH]c12	0%	2.2	-5.4	0.1	12	1	-17	-12	-0.5	20

More results.
SMILES	Vif TR-FRET	RanGTP-Imp inh	MLL AF4-AF9 inh	Bfl-1 A1 inh	Calb FLC	Beta cell apopt	Ecoli rRNA inh	Ecoli rRNA inh OD600	Ecoli rRNA inh RFP	T cruzi repl
CC(NC(c1ccccc1)c1ccccc1)C(=O)N1CCCc2ccccc21 (stereo unspecified)	-6%	-2.0	/	0.2	4	2	/	/	/	16
Cc1cc(C)n2nc(SC(C)C(=O)Nc3ccc(Cl)cn3)nc2n1 (stereo unspecified)	1%	5.2	-0.9	0.8	-4	-1	10	8	-0.4	2
Cc1ccc(OCC(=O)OCC(=O)NC2CC2)cc1C	/	/	-1.0	-0.6	/	-1	2	1	-2.6	/
COc1ccccc1N1CCN(CCC(=O)Nc2ccc(F)cc2)CC1	/	2.7	2.4	-0.3	2	-3	-1	4	-2.1	-1

Only part of the results is shown; count on the stated rates, not on these rows.
